Compound activity as filed in PubChem.
FGF22 binding: binders of human FGF22 protein, primary screen, FGF22 synaptogenesis inhibitor project, biophysical, thermal shift, single point. Fibroblast growth factor 22 (Homo sapiens), Q9HCT0. recombinant FGF22 thermal shift, SYPRO orange fluorescence; percent of sucrose octasulfate shift, DMSO zero. calls only at 9.99 µM. 1.5% of 340,000 active. AID 651658, 2012;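 active means melting point raised past a set limit in the mean and every replicate; three in four hits are not shown here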
Target sequence (Q9HCT0 whole entry, looked up): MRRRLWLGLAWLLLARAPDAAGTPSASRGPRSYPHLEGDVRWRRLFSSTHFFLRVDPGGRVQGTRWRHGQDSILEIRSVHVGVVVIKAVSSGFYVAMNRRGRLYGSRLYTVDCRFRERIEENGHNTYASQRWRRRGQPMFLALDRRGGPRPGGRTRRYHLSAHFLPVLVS
Ecoli rRNA inh: reduced GFP signal of wild-type E. coli, primary screen, bacterial rRNA inhibitor project, GFP/RFP fluorescence, OD600, single point; GFP signal change (wild-type ribosome), % (test concentration not listed); AID 720706, 2013; 1.6% of 350,000 active; E. coli WT GFP vs humanized-ribosome RFP mutants, 24 h; active compounds read low; DMSO median 0, no signal -100;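 active means significant combined selectivity score with lowered wild-type GFP, culture density cut under 30%, mutant RFP and density less affected; inactive means any of these conditions unmet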; further: one replicate is shown; some compounds called inactive have numbers as strong as hits
MLL AF4-AF9 inh: inhibitors of AF4 peptide binding to AF9, primary screen, biochemical, AlphaScreen, biotin-AF4 peptide, FLAG-AF9, single point | Protein AF-9 (Homo sapiens), P42568 | inhibition, % at 10 µM | 0.47% of 350,000 active | AID 651704, 2012;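 active means every replicate reaching a set inhibition limit, whatever the replicate mean, cut at about 25% in these data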;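 further: 0% = plate neutral control median and 100% = total signal loss; the record names both 10 and 1 µM as test concentration; the first replicate is given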
Target sequence (P42568 whole entry, looked up): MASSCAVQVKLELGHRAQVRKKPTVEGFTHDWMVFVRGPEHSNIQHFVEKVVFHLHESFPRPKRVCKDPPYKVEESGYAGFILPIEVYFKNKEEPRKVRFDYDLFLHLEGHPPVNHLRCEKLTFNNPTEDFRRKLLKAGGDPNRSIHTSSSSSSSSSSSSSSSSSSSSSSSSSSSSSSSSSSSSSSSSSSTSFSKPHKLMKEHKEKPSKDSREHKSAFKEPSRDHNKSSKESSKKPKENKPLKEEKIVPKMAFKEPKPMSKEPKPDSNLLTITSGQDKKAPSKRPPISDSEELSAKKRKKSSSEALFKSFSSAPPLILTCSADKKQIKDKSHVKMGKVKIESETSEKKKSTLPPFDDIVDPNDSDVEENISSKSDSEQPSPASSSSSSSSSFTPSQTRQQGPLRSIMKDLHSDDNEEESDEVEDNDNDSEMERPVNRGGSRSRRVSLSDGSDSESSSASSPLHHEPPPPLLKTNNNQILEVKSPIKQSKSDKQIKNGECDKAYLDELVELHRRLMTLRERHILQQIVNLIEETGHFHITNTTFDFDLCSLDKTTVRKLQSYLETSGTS
Ecoli rRNA inh OD600: further read-out of Ecoli rRNA inh, marked with its call; OD600 change, %; measured here: OD600 growth;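 optical density of the mix in the first replicate; 0 = DMSO median and -100 = no signal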
Ecoli rRNA inh RFP: also measured in Ecoli rRNA inh; calls as there; RFP signal change, %; measured here: RFP humanized mutant strains;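 first replicate; 0 = DMSO median and -100 = no signal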
Numbers without * were called inactive.

What do the screens show for `CCCNC(=O)N1CC2(CN(Cc3nccs3)C2)c2c([nH]c3cc(OC)ccc23)[C@H]1CO`?
FGF22 binding: inactive; Ecoli rRNA inh: 0; MLL AF4-AF9 inh: 2.8; Ecoli rRNA inh OD600: 4; Ecoli rRNA inh RFP: 3.7

What do the screens show for `C[C@@H]1CCCCO[C@H](CN(C)S(=O)(=O)c2cn(C)cn2)[C@@H](C)CN([C@H](C)CO)C(=O)c2cc(NC(=O)Nc3ccccc3)ccc2O1`?
FGF22 binding: inactive; Ecoli rRNA inh: 3; MLL AF4-AF9 inh: -2.3; Ecoli rRNA inh OD600: 12; Ecoli rRNA inh RFP: -1.3

How did O=C(C(=O)N1CCC(CNC(=O)c2sc3ccccc3c2Cl)CC1)c1cccs1 do in these assays?
FGF22 binding: inactive; Ecoli rRNA inh: -12; MLL AF4-AF9 inh: -0.5; Ecoli rRNA inh OD600: -17; Ecoli rRNA inh RFP: 1.6

What do the screens show for `COCC#Cc1ccc2c(c1)O[C@H](CN(C)Cc1cccnc1)[C@@H](C)CN([C@@H](C)CO)S2(=O)=O`?
FGF22 binding: inactive; Ecoli rRNA inh: -4; MLL AF4-AF9 inh: 2.3; Ecoli rRNA inh OD600: -16; Ecoli rRNA inh RFP: -1.3

Results for Cc1nnc(NC(=O)CCN2C(=O)C3CC=CCC3C2=O)s1 (centres undefined) ?
FGF22 binding: inactive; Ecoli rRNA inh: 13; MLL AF4-AF9 inh: 2.9; Ecoli rRNA inh OD600: 16; Ecoli rRNA inh RFP: -0.1

How did C[C@H](O)C#Cc1cnc2c(c1)C(=O)N([C@@H](C)CO)C[C@H](C)[C@H](CN(C)Cc1cccc(F)c1)O2 do in these assays?
FGF22 binding: inactive; Ecoli rRNA inh: 3; MLL AF4-AF9 inh: -2.3; Ecoli rRNA inh OD600: 17; Ecoli rRNA inh RFP: -0.8

Results for CC(C)NC(=O)N(C)C[C@@H]1Oc2ccc(NS(=O)(=O)c3ccccc3)cc2CC(=O)N([C@H](C)CO)C[C@H]1C ?
FGF22 binding: inactive; Ecoli rRNA inh: 2; MLL AF4-AF9 inh: -1.8; Ecoli rRNA inh OD600: 9; Ecoli rRNA inh RFP: -1.4

What do the screens show for `CC(C)C#Cc1ccc([C@@H]2[C@@H](C#N)N(C(=O)C3CC3)[C@H]2CO)cc1`?
FGF22 binding: inactive; Ecoli rRNA inh: 4; MLL AF4-AF9 inh: -0.2; Ecoli rRNA inh OD600: 1; Ecoli rRNA inh RFP: 1.8

How did C[C@@H]1CN([C@H](C)CO)C(=O)c2cc(NC(=O)Nc3ccccc3)ccc2O[C@@H]1CN(C)Cc1ccc(C(=O)O)cc1 do in these assays?
FGF22 binding: inactive; Ecoli rRNA inh: 5; MLL AF4-AF9 inh: -1.1; Ecoli rRNA inh OD600: 1; Ecoli rRNA inh RFP: -1.0

What do the screens show for `O=C(N[C@@H]1C=C[C@@H](CC(=O)N2CCN(c3ccccc3)CC2)O[C@@H]1CO)c1ccncc1`?
FGF22 binding: inactive; Ecoli rRNA inh: -2; MLL AF4-AF9 inh: -12; Ecoli rRNA inh OD600: -4; Ecoli rRNA inh RFP: -2.3

How did C[C@H]1CN([C@@H](C)CO)C(=O)CCCn2nncc2CO[C@@H]1CN(C)C(=O)Nc1cccc(C(F)(F)F)c1 do in these assays?
FGF22 binding: inactive; Ecoli rRNA inh: -59; MLL AF4-AF9 inh: -1.2; Ecoli rRNA inh OD600: -77; Ecoli rRNA inh RFP: -14

Results for CCC(=O)N1[C@@H](CO)[C@@H](c2ccccc2)[C@@H]1CNC(=O)CN1CCOCC1 ?
FGF22 binding: inactive; Ecoli rRNA inh: 3; MLL AF4-AF9 inh: -5.0; Ecoli rRNA inh OD600: 8; Ecoli rRNA inh RFP: -3.0

The list goes on; it opens with the 3 that closed the last part.
What do the screens show for `O=C(N[C@@H]1C=C[C@@H](CC(=O)N2CCN(c3ccccc3)CC2)O[C@@H]1CO)c1ccncc1`?
FGF22 binding: inactive; Ecoli rRNA inh: -2; MLL AF4-AF9 inh: -12; Ecoli rRNA inh OD600: -4; Ecoli rRNA inh RFP: -2.3

How did C[C@H]1CN([C@@H](C)CO)C(=O)CCCn2nncc2CO[C@@H]1CN(C)C(=O)Nc1cccc(C(F)(F)F)c1 do in these assays?
FGF22 binding: inactive; Ecoli rRNA inh: -59; MLL AF4-AF9 inh: -1.2; Ecoli rRNA inh OD600: -77; Ecoli rRNA inh RFP: -14

Results for CCC(=O)N1[C@@H](CO)[C@@H](c2ccccc2)[C@@H]1CNC(=O)CN1CCOCC1 ?
FGF22 binding: inactive; Ecoli rRNA inh: 3; MLL AF4-AF9 inh: -5.0; Ecoli rRNA inh OD600: 8; Ecoli rRNA inh RFP: -3.0

What do the screens show for `O=C(N[C@H]1C=C[C@H](CC(=O)N2CCOCC2)O[C@H]1CO)c1ccccn1`?
FGF22 binding: inactive; Ecoli rRNA inh: 4; MLL AF4-AF9 inh: -1.8; Ecoli rRNA inh OD600: -2; Ecoli rRNA inh RFP: -2.0

Results for CCOC(=O)C1=CCN(S(=O)(=O)c2ccc(C)cc2)C1c1cccc(C)c1 (centres undefined) ?
FGF22 binding: inactive; Ecoli rRNA inh: -11; MLL AF4-AF9 inh: -0.4; Ecoli rRNA inh OD600: -22; Ecoli rRNA inh RFP: -7.7

What do the screens show for `O=C(NC1CCCCC1)N[C@@H]1CC[C@H](CC(=O)N2CCOCC2)O[C@H]1CO`?
FGF22 binding: inactive; Ecoli rRNA inh: 1; MLL AF4-AF9 inh: -2.1; Ecoli rRNA inh OD600: 10; Ecoli rRNA inh RFP: 2.4

How did C[C@H](CO)N1C[C@H](C)[C@H](CN(C)C(=O)Cc2ccncc2)Oc2ncc(C#CC3(O)CCCC3)cc2C1=O do in these assays?
FGF22 binding: inactive; Ecoli rRNA inh: 6; MLL AF4-AF9 inh: -1.5; Ecoli rRNA inh OD600: -1; Ecoli rRNA inh RFP: -5.6

What do the screens show for `N#C[C@@H]1[C@@H](c2ccccc2C2=CCCCC2)[C@@H](CO)N1C(=O)CN1CCOCC1`?
FGF22 binding: inactive; Ecoli rRNA inh: 1; MLL AF4-AF9 inh: 0.6; Ecoli rRNA inh OD600: -10; Ecoli rRNA inh RFP: 0.3

Results for Cc1noc(C)c1NC(=O)N(C)C[C@H]1Oc2ncc(C#CC(C)C)cc2C(=O)N([C@H](C)CO)C[C@@H]1C ?
FGF22 binding: inactive; Ecoli rRNA inh: 1; MLL AF4-AF9 inh: -9.2; Ecoli rRNA inh OD600: 3; Ecoli rRNA inh RFP: -2.8

How did CO[C@H]1CN(C)C(=O)c2cc(NC(=O)NC(C)C)ccc2OC[C@H](C)N(Cc2ccccn2)C[C@H]1C do in these assays?
FGF22 binding: inactive; Ecoli rRNA inh: 0; MLL AF4-AF9 inh: 0.2; Ecoli rRNA inh OD600: -1; Ecoli rRNA inh RFP: -1.2

How did COc1ccc(Cc2c(C3CCCCC3)nc3ccc(C)cn23)c(C)c1 do in these assays?
FGF22 binding: inactive; Ecoli rRNA inh: -40; MLL AF4-AF9 inh: 6.1; Ecoli rRNA inh OD600: -75; Ecoli rRNA inh RFP: -12

Results for COc1ccc2c3c(n(C)c2c1)[C@H](CO)N(C(=O)c1cccc(F)c1)CC31CN(CC2CC2)C1 ?
FGF22 binding: inactive; Ecoli rRNA inh: 0; MLL AF4-AF9 inh: 1.7; Ecoli rRNA inh OD600: 1; Ecoli rRNA inh RFP: 2.2

Results for CO[C@@H]1CN(C)C(=O)c2ccc(NC(=O)Cc3ccccc3)cc2OC[C@@H](C)N(C(=O)c2ccccc2F)C[C@H]1C ?
FGF22 binding: inactive; Ecoli rRNA inh: -1; MLL AF4-AF9 inh: 1.9; Ecoli rRNA inh OD600: -12; Ecoli rRNA inh RFP: 7.9

Results for Cc1cc2c(cc(C(=O)OC(C)C(=O)NCc3ccccc3)n2C)o1 (centres undefined) ?
FGF22 binding: inactive; Ecoli rRNA inh: 3; MLL AF4-AF9 inh: -0.9; Ecoli rRNA inh OD600: 11; Ecoli rRNA inh RFP: -0.2

Results for CC(C)NC(=O)N(C)C[C@@H]1OCCCC[C@H](C)Oc2ccc(NS(=O)(=O)c3ccc(Cl)cc3)cc2C(=O)N([C@H](C)CO)C[C@@H]1C ?
FGF22 binding: inactive; Ecoli rRNA inh: -3; MLL AF4-AF9 inh: -0.8; Ecoli rRNA inh OD600: -14; Ecoli rRNA inh RFP: -0.5

How did C[C@H](CO)N1C[C@H](C)[C@@H](CN(C)C(=O)C2CCOCC2)Oc2cc(-c3ccc(C(=O)N(C)C)cc3)ccc2S1(=O)=O do in these assays?
FGF22 binding: inactive; Ecoli rRNA inh: 1; MLL AF4-AF9 inh: 2.1; Ecoli rRNA inh OD600: 12; Ecoli rRNA inh RFP: -2.3

Results for C[C@@H]1CN([C@H](C)CO)C(=O)Cc2cc(NC(=O)C3CCCCC3)ccc2O[C@H]1CN(C)S(C)(=O)=O ?
FGF22 binding: inactive; Ecoli rRNA inh: 1; MLL AF4-AF9 inh: 0.5; Ecoli rRNA inh OD600: 2; Ecoli rRNA inh RFP: -2.5

Results for C[C@H]1CN([C@@H](C)CO)C(=O)c2cc(NC(=O)NC3CCCCC3)ccc2O[C@@H]1CN(C)Cc1ccc(-c2ccccc2)cc1 ?
FGF22 binding: inactive; Ecoli rRNA inh: 0; MLL AF4-AF9 inh: 1.5; Ecoli rRNA inh OD600: -6; Ecoli rRNA inh RFP: 1.3

Results for C[C@@H]1CN([C@H](C)CO)C(=O)c2cc(NC(=O)Nc3cccc4ccccc34)ccc2O[C@H]1CN(C)Cc1ccc(-c2ccccc2)cc1 ?
FGF22 binding: inactive; Ecoli rRNA inh: 2; MLL AF4-AF9 inh: 3.5; Ecoli rRNA inh OD600: 11; Ecoli rRNA inh RFP: 0.8

How did COc1ccc(CN(C)C[C@H]2Oc3ccc(NC(=O)Nc4ccc(C(F)(F)F)cc4)cc3C(=O)N([C@@H](C)CO)C[C@H]2C)cc1 do in these assays?
FGF22 binding: inactive; Ecoli rRNA inh: -53; MLL AF4-AF9 inh: 1.0; Ecoli rRNA inh OD600: -68; Ecoli rRNA inh RFP: -9.9

Results for CO[C@@H]1CN(C)C(=O)c2cc(NC(=O)c3ccccc3F)ccc2OC[C@@H](C)N(C(C)=O)C[C@H]1C ?
FGF22 binding: inactive; Ecoli rRNA inh: 0; MLL AF4-AF9 inh: -3.5; Ecoli rRNA inh OD600: 6; Ecoli rRNA inh RFP: -3.3

How did CC(=O)c1ccc(OC2(C)CCN(Cc3cccn3-c3nccs3)C2)cc1 (centres undefined) do in these assays?
FGF22 binding: inactive; Ecoli rRNA inh: 9; MLL AF4-AF9 inh: 3.6; Ecoli rRNA inh OD600: 14; Ecoli rRNA inh RFP: -2.3

Results for C[C@H](O)C#Cc1cnc2c(c1)C(=O)N([C@H](C)CO)C[C@@H](C)[C@@H](CN(C)C(=O)c1ccccc1F)O2 ?
FGF22 binding: inactive; Ecoli rRNA inh: -2; MLL AF4-AF9 inh: -1.1; Ecoli rRNA inh OD600: 4; Ecoli rRNA inh RFP: -3.0

What do the screens show for `Cc1ccc(S(=O)(=O)NC(=O)C2(C)CCN2C(=O)COc2ccc(Cl)cc2)nc1` (centres undefined)?
FGF22 binding: inactive; Ecoli rRNA inh: 9; MLL AF4-AF9 inh: -1.4; Ecoli rRNA inh OD600: 18; Ecoli rRNA inh RFP: 2.6

How did C[C@@H]1CN([C@H](C)CO)C(=O)c2cc(NS(=O)(=O)c3cccs3)ccc2O[C@@H]1CN(C)Cc1ccc(C(=O)O)cc1 do in these assays?
FGF22 binding: inactive; Ecoli rRNA inh: 2; MLL AF4-AF9 inh: -1.9; Ecoli rRNA inh OD600: 8; Ecoli rRNA inh RFP: 0.2

What do the screens show for `COc1ccc(NC(=O)N(C)C[C@@H]2Oc3cc(C#CCN(C)C)ccc3S(=O)(=O)N([C@H](C)CO)C[C@@H]2C)cc1`?
FGF22 binding: inactive; Ecoli rRNA inh: 4; MLL AF4-AF9 inh: 6.3; Ecoli rRNA inh OD600: 12; Ecoli rRNA inh RFP: -0.6

Results for C[C@H](CO)N1C[C@H](C)[C@H](CN(C)Cc2ccc(C(=O)O)cc2)Oc2ccc(NC(=O)NC3CCCCC3)cc2C1=O ?
FGF22 binding: inactive; Ecoli rRNA inh: -3; MLL AF4-AF9 inh: -1.7; Ecoli rRNA inh OD600: 3; Ecoli rRNA inh RFP: -1.8

Results for CC(C)CC#Cc1ccc2c(c1)O[C@H](CN(C)C(=O)c1ccncc1)[C@H](C)CN([C@@H](C)CO)S2(=O)=O ?
FGF22 binding: inactive; Ecoli rRNA inh: 0; MLL AF4-AF9 inh: 0.1; Ecoli rRNA inh OD600: -3; Ecoli rRNA inh RFP: 2.2

What do the screens show for `CC(=O)c1cccc(-c2ccnc3c2CC(C(=O)Nc2ccccc2)O3)c1` (centres undefined)?
FGF22 binding: inactive; Ecoli rRNA inh: -2; MLL AF4-AF9 inh: -3.2; Ecoli rRNA inh OD600: -2; Ecoli rRNA inh RFP: -3.8

This is a subset; rates above refer to the full screens.
